# VDR inhibitor = vitamin D3 receptor (human) inhibition; P11473; VDR-SRC2-3 peptide fluorescence polarization, 2 h; Potency, µM, for the others: max response, negative = inhibition, actives largely listed as inhibitors; 400,000 compounds, 0.93% hits; AID 504847; active = well fitted inhibition curve with a large enough effect; inconclusive = small, poorly fitted or top-dose-only effect, or another doubt; inactive = no such curve, though single readings can be large or run the other way; note: series mostly up to about 120 µM
# Target sequence (P11473 whole entry, looked up): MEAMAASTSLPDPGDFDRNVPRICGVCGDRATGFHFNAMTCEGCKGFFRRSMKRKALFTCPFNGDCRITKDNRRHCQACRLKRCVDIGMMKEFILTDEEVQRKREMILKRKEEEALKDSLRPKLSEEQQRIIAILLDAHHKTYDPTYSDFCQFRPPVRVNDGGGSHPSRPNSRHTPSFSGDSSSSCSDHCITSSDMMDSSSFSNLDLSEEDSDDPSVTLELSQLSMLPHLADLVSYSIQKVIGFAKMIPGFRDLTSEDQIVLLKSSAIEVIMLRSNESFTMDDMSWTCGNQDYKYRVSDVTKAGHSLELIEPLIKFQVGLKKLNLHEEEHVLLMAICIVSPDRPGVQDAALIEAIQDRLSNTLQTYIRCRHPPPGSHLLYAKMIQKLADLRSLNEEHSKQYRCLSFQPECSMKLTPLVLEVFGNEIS
#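 VDR–SRC2-3 interaction, FP format. Cmpds 23 nl via pintool, brief spin, 2 h ambient incubation.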
# Starred values were filed as active, the others as inactive; ? = inconclusive; [ ] = remark or other dose. % is set by controls: 0 for no effect and ±100 for the full control effect; potency is the fitted concentration of half-maximal effect.
VDR inhibitor,Molecule
10.8%,O=C(CSc1ncccn1)N1CCN(S(=O)(=O)c2ccccc2)CC1
-1.7%,CCCOP(=O)(OCCC)C(Nc1cccc(C(F)(F)F)c1)c1ccc(C)cc1 (configuration not stated)
-0.7%,CCN(CC)S(=O)(=O)c1ccc(-c2nnc(SCC(N)=O)n2CC)cc1
7.5%,Fc1cccc(Cl)c1Cc1noc(/C=C/c2ccccc2)n1
?,CC(=O)Nc1sc(N/N=C/c2ccccc2F)nc1-c1ccc(C)cc1
2.8%,COc1ccc(C(CNC(=O)c2cccc(S(=O)(=O)Nc3ccc(F)cc3)c2)N2CCCC2)cc1 (configuration not stated)
10.9%,COC(=O)c1sc2ncn(-n3c(C)ccc3C)c(=O)c2c1C
?,O=C(Nc1ccc(F)c(Cl)c1)Nc1ccc(Cl)cn1
-1.5%,Cc1cc(C)cc(NC(=O)c2cc(=O)c3ccccc3o2)c1
-28.0%,COCC(=O)n1nc(NCc2ccc(OC)cc2)nc1NCc1ccc(OC)cc1
25.2%,O=C(Nc1cc(C(F)(F)F)ccc1N1CCOCC1)c1cn2ccccc2n1
-25.7%,Cc1ccc(Cn2c(C(=O)O)cc3sccc32)cc1
-13.4%,O=C(COC(=O)c1nn(CCO)c(=O)c2ccccc12)Nc1ccc(Cl)c(Cl)c1
12.3%,COc1cc([N+](=O)[O-])ccc1NC(=O)CSc1nnc(C)c(C)n1
1.7%,COc1cc(CNn2nnnc2N)cc(Br)c1OCC(=O)NC(C)(C)C

# The closing two records of the part before are carried over, then new ones follow:
VDR inhibitor,Molecule
12.3%,COc1cc([N+](=O)[O-])ccc1NC(=O)CSc1nnc(C)c(C)n1
1.7%,COc1cc(CNn2nnnc2N)cc(Br)c1OCC(=O)NC(C)(C)C
-4.3%,OCc1cccc(Nc2ncnc3sc4c(c23)CCCCC4)c1
-11.2%,CCN(C(=O)COC(=O)CN(C)S(=O)(=O)c1ccc(NC(C)=O)cc1)C1CCS(=O)(=O)C1 (configuration not stated)
-23.4%,CC1(C)SC(=S)N(NC(=O)Nc2ccccc2)C1N(O)C(=O)Nc1cccc2ccccc12 (configuration not stated)
0.9%,CCC(=O)N1CCc2cc(S(=O)(=O)NCCC(=O)N3CCN(c4ccccc4)CC3)ccc21
2.5%,O=C(Nc1ccc(Cl)cc1)Nc1nc(-c2ccccc2)cs1
2.1%,O=C(COC(=O)c1ccc(Br)cc1)NCCC1=CCCCC1
32.6%[activator],Cc1ccc(N/N=C/c2ccncc2)cc1
-11.8%,CN1CCC(N(C)S(=O)(=O)c2ccc(NC(=O)COc3ccc([N+](=O)[O-])cc3)cc2)CC1
-12.0%,CCN1CCCC1CNCc1cccc(OC)c1OCc1ccccc1 (configuration not stated)
1.7%,Cc1ccc(-c2csc(NC(=S)NC(=O)/C=C/c3ccco3)n2)cc1
-3.9%,CC(C)(C)OC(=O)NCCCC[C@H](NC(=O)c1nc[nH]c1C(=O)NC(c1ccccc1)c1ccccc1)C(=O)OC(C)(C)C
33.4%[activator],CC(C)C(C)(C#N)NC(=O)CN1C(=O)NC2(CCCc3ccccc32)C1=O (configuration not stated)
-3.1%,COc1cc(C(=O)NNc2nc3cc4c(cc3s2)OCO4)cc(OC)c1OC
-3.0%,COC(=O)CC1=C(c2ccc([N+](=O)[O-])cc2)CCC1=O
-27.1%,COc1ccc(CC2(CO)CCN(S(=O)(=O)c3cccc4cccnc34)CC2)cc1

# Among those listed so far, two contain bromine.
VDR inhibitor,Molecule
1.7%,COc1cc(CNn2nnnc2N)cc(Br)c1OCC(=O)NC(C)(C)C
2.1%,O=C(COC(=O)c1ccc(Br)cc1)NCCC1=CCCCC1

# (list continues)
VDR inhibitor,Molecule
-3.4%,CC[C@]12c3[nH]c4ccc(Cl)cc4c3CCN1C(=O)[C@@H](CC(=O)NCCCn1ccnc1)C[C@@H]2C(=O)N1CCN(C(=O)C2CC2)CC1
-16.0%,COc1ccc(Nc2ccc(S(=O)(=O)N3CCCCCC3)cc2[N+](=O)[O-])cc1
-10.3%,CCOC(=O)c1c(C)[nH]c(C(=O)CSc2nc(C)cc(C)n2)c1C
3.5%,CCOC(=O)N1CCN(S(=O)(=O)N2CCCC(C(=O)NCCCN3CC(C)CC(C)C3)C2)CC1 (configuration not stated)
4.5%,COc1ccc(OC)c(Nc2c3ccccc3nc3ccccc23)c1
-7.1%,CC(C)n1nc(C(=O)NC2CCCCCC2)c2ccccc2c1=O
1.8%,O=C(O)c1ccccc1/C=N/NC(=S)NC1CCCCC1
-4.8%,CCOc1cc(CNCc2ccccn2)cc(Cl)c1OCC
0.8%,CCOC(=O)CSc1ccc(S(=O)(=O)N(C)C2CCCCC2)cc1[N+](=O)[O-]
2.4%,CCOCC(=O)Nc1ccccc1C(=O)N1CCOCC1
-5.1%,CCn1cc(Cl)c(C(=O)Nc2ccc(OC)c(OC)c2)n1
-2.6%,COc1ccc(Cc2nnc(NC(=O)c3cccs3)s2)cc1
-5.8%,CCCS(=O)(=O)c1nc(S(=O)(=O)c2ccc(C)cc2)c(NCCCn2ccnc2)s1
3.6%,Cn1c(=O)c(C(=O)c2ccccc2)c(O)c2ccccc21
-8.4%,O=CNC1(c2ccccc2)CCCCC1

# 5 compounds out of the list above, ordered by the value under VDR inhibitor, falling:
VDR inhibitor,Molecule
-2.6%,COc1ccc(Cc2nnc(NC(=O)c3cccs3)s2)cc1
-4.8%,CCOc1cc(CNCc2ccccn2)cc(Cl)c1OCC
-10.3%,CCOC(=O)c1c(C)[nH]c(C(=O)CSc2nc(C)cc(C)n2)c1C
-11.2%,CCN(C(=O)COC(=O)CN(C)S(=O)(=O)c1ccc(NC(C)=O)cc1)C1CCS(=O)(=O)C1 (configuration not stated)
-28.0%,COCC(=O)n1nc(NCc2ccc(OC)cc2)nc1NCc1ccc(OC)cc1

# The list continues.
VDR inhibitor,Molecule
6.8%,CCOC(=O)C1=C(COC(=O)CCc2ccc(F)cc2)NC(=O)NC1C (configuration not stated)
-5.2%,COc1ccc(N2C(=O)CC(Sc3nc(C)cc(C)c3C#N)C2=O)cc1 (configuration not stated)
-20.8%,COc1cccc(NC(=O)CN(C)C(=O)/C=C/c2cc(OC)ccc2OC)c1
17.2%,Cc1c(NC(=O)c2ccc(Br)s2)c(=O)n(-c2ccccc2)n1C
-11.6%,Cc1cc(NC(=O)COC(=O)C2COc3ccccc3O2)no1 (configuration not stated)
-3.4%,CCC(Nc1ccc(-c2nc(-c3ccccn3)no2)cc1[N+](=O)[O-])c1ccccc1 (configuration not stated)
-11.2%,COc1ccc(CN(Cc2ccccc2)C(=O)c2ccno2)cc1COc1ccc(NC(C)=O)cc1
-5.6%,Cc1c(-c2nc(-c3ccc(C(C)(C)C)cc3)no2)n(C)oc1=O
-4.2%,Cc1ccc(-c2nnc(OCC3CCCO3)c3ccccc23)cc1 (configuration not stated)
-6.8%,O=S(=O)(Cc1ccccc1)N1CCN(c2ccccc2)CC1
14.7%,COc1ccccc1OCCCC(=O)NCc1ccco1
13.0%,Cc1ccc(C)c(N2CN(Cc3ccco3)CNC2=S)c1
9.1%,Cc1ccc(C(=O)OCC(=O)N(C)c2ccccc2)c(C)c1
-22.2%,CCOC(=O)C1(CCOc2ccccc2)CCN(Cc2cccc3nonc23)CC1
-32.8%,COc1ccc(SCc2noc(C(=O)NCC3CCCO3)c2C(=O)O)cc1 (configuration not stated)
0.4%,CCOc1ccc(/C=C2\SC(=S)N(NS(=O)(=O)c3ccccc3)C2=O)cc1OC
-4.3%,COc1ccc(NC(=O)N2CCCC2C(=O)Nc2ccccc2)cc1 (configuration not stated)
-14.2%,CCn1cc(SCC(=O)N2CCc3ccccc32)c2ccccc21
-6.0%,CN(C)S(=O)(=O)c1cccc(NC(=O)CSc2cccc3cccnc23)c1
3.7%,CCCCn1c2nc3ccccc3nc2c2c(=O)n(C(C)CC)cnc21 (configuration not stated)
6.2%,C/C(=N\Nc1ccccc1[N+](=O)[O-])c1ccc(N2CCOCC2)cc1
6.5%,COc1ccccc1-c1cc(C(=O)N/N=C/c2cccs2)c2ccccc2n1
7.4%,CCN(CC(=O)Nc1cc(Cl)ccc1C)C(=O)C1CC1
6.9%,O=C(Cn1cnc2ccccc2c1=O)NCc1ccco1
-13.4%,CC(C)Cc1nc(SCc2cccnc2)c2c(=O)n(C)c(=O)n(C)c2n1
-19.2%,CCN(CC)S(=O)(=O)c1ccc(N2CCOCC2)c(NC(=O)CC(C)(C)C)c1
3.7%,CNC(=S)N(CCCO)Cc1cc2cc3c(cc2[nH]c1=O)OCO3
-4.9%,Cc1ccc(CC2S/C(=N/c3ccccn3)NC2=O)cc1 (configuration not stated)
-13.2%,O=C(O)C1CCCCC1C(=O)Nc1nc(-c2cccs2)cs1 (configuration not stated)
-20.6%,COc1cccc(C(=O)Cn2c(NCCCO)nc3ccccc32)c1
4.8%,COc1ccc(NC(=O)c2c(NCc3cccc(OC)c3)sc3c2CCCC3)cc1
?,O=C(CS(=O)(=O)c1ccccc1)Nc1ncc([N+](=O)[O-])s1
-13.1%,Cc1ccc(S(=O)(=O)N(CC(=O)Nc2cccc([N+](=O)[O-])c2)C(=O)N2CCN(C)CC2)cc1
-8.3%,CCN1CCN(Cc2ccc(NC(=O)c3cc(NC(=O)C4=NN(c5ccccc5)C(=O)C4)cc(OC)c3)cc2C(F)(F)F)CC1
-12.5%,COc1ccc2c(c1)CCN(C(=O)CCl)C2C1C(=O)CCCC1=O (configuration not stated)
12.8%,CC1=C(c2ccc(C(C)C)cc2)S(=O)(=O)N=C1N1CCC(C(=O)NCc2ccco2)CC1
5.9%,Cc1ccnc(NS(=O)(=O)c2ccc(-n3cccn3)cc2)c1
-5.1%,CC1CCCC(C)N1/N=C/c1ccc(C#N)cc1 (configuration not stated)
-21.1%,Cc1nc(SCC(=O)Nc2ccc(Cl)cc2[N+](=O)[O-])nc(C)c1C
0.2%,Cc1ccc(CCNC(=O)C2CCCN(c3nnc(C)c4c(C)n(-c5ccccc5)nc34)C2)cc1 (configuration not stated)
-18.4%,CCC(=O)NC(=S)Nc1cccc(NC(=O)c2ccccc2)c1
8.2%,CC(C)CNC(=O)c1ccc(COc2ccc(Cl)cc2Cl)o1
-10.6%,C=CCNC(=S)N1CCc2[nH]c3ccccc3c2C1
9.9%,Cc1cc(/C=C(\C#N)C(=O)NCC2CCCO2)c(C)n1-c1ccc(Cl)cc1 (configuration not stated)
9.6%,COc1cccc(-c2cc3nc4c(c(N5CCC6(CC5)OCCO6)n3n2)CCC4)c1
4.7%,Cn1c(=O)[nH]c2nnc(-c3ccc(Cl)c(Cl)c3)nc2c1=O
-3.4%,CCN(CC(=O)Nc1ccc(NC(C)=O)cc1)c1ccc(C(F)(F)F)cn1
-11.2%,N#CC1=C(SCC(=O)Nc2ccccc2)NC(=O)CC1c1ccco1 (configuration not stated)
6.8%,O=C(Cc1ccc(F)cc1)Nc1nnc2n1CCS2
-2.3%,Cc1ccnc(NS(=O)(=O)c2ccc(NC(=O)c3cc(-c4ccc(Br)cc4)nc4ccccc34)cc2)n1
-6.9%,Nc1nc2ccccc2n1/N=C/c1ccc2c(c1)OCO2
-24.7%,CN(C)c1ccc(C(CNS(=O)(=O)c2ccc3ccccc3c2)N2CCOCC2)cc1 (configuration not stated)
-2.5%,Nc1nc(Br)c2c(F)cccc2c1-c1ccc(Cl)cc1
12.2%,CN(C)CCn1c2c(c(SCC(=O)NCc3ccccc3)nc1=O)CCC2
10.5%,COc1ccc(OCC(=O)Nc2nnc3n2CCS3)cc1
10.4%,CC(C)N1CC2(c3ccccc3)CN(C(C)C)CC(c3ccccc3)(C1)C2=O
-17.1%,CC(C)NCCOc1cccc(Br)c1
-11.2%,Cc1c(NC(=O)/C(C#N)=C/c2ccccc2)c(=O)n(-c2ccccc2)n1C
-3.1%,CN(C)C/C=C/C(O)(c1ccccc1)c1ccccc1
-4.6%,Cc1csc(NC(=O)C(CC(C)C)NS(=O)(=O)c2ccc3c(c2)oc(=O)n3C)n1 (configuration not stated)

# (cont.)
VDR inhibitor,Molecule
2.0%,CCc1ccc(-c2nc(CN3CCC(C(=O)N4CCN(c5ccccn5)CC4)CC3)c(C)o2)cc1
-13.0%,CCOc1ncccc1C(=O)OCC(=O)NC1CC1
4.3%,O=C(Nc1ccc2c(c1)C(=O)NC2=O)c1cccc(Cl)c1
-4.3%,N/C(=N\OS(=O)(=O)c1ccc2ccccc2c1)c1ccncc1
-2.4%,O=C(COC(=O)c1ccc(S(=O)(=O)N2CCCCC2)cc1)NCc1ccc(F)cc1
5.7%,CC(=O)Nc1ccc(S(=O)(=O)NC(CC(=O)NCCCN2CCOCC2)C(C)C)cc1 (configuration not stated)
7.7%,CCOC(=O)N1CCC(C(N)=O)CC1
12.1%,Cc1cc2c(cc1S(=O)(=O)Nc1ccc(F)cc1)n(C)c(=O)c(=O)n2C
15.8%,N#CC(=C=[N-])/C=C(\C(=O)c1ccccc1)[n+]1ccccc1
-10.5%,O=C(N/N=C/c1ccc(C(=O)O)cc1)C1=NNC(c2ccccc2)(c2ccccc2)C1
-1.7%,O=c1c2cc3c(cc2n(Cc2ccc(F)cc2)c(=O)n1Cc1nc(-c2ccccc2)no1)OCO3
-21.0%,CC1(C)CC(=O)C2=C(C1)Nc1cc(Cl)ccc1S2
3.6%,COc1ccc(N(C(=O)c2ccco2)C(C(=O)NC2CCCC2)c2cccs2)cc1 (configuration not stated)
0.3%,COC(=O)Cc1c[nH]c2cccc(OCC(O)CN(Cc3ccc([N+](=O)[O-])cc3)C(C)(C)C)c12 (configuration not stated)
3.7%,Cc1nn(-c2ccc(Cl)cc2)c(=O)c2ccccc12
0.3%,COc1cc(NC(=O)C(c2ccccc2)c2ccccc2)c(C(=O)O)cc1OC
18.5%,CCN(CC)CCCN=Cc1c(-c2ccccc2)[nH]n(-c2nc3ccccc3s2)c1=O

# Fetched by structure from above (four):
VDR inhibitor,Molecule
12.1%,Cc1cc2c(cc1S(=O)(=O)Nc1ccc(F)cc1)n(C)c(=O)c(=O)n2C
0.3%,COc1cc(NC(=O)C(c2ccccc2)c2ccccc2)c(C(=O)O)cc1OC
-10.5%,O=C(N/N=C/c1ccc(C(=O)O)cc1)C1=NNC(c2ccccc2)(c2ccccc2)C1
15.8%,N#CC(=C=[N-])/C=C(\C(=O)c1ccccc1)[n+]1ccccc1

# Compound activity from PubChem BioAssay.

# Some of the compounds tested; rates above refer to the full screens.
